Bioassay records: PubChem, several laboratories
BJeLR viability – BJeLR cell viability loss. BJeLR (HRASV12) viability, CellTiter-Glo ATP luminescence, 48 h; reference of the scale not given here. inhibition, % (test concentration not listed). 300,000 tested, 0.17% active. AID 1554;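 active = replicate mean above 50%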;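 note: 50 nL library stock added to about 25 µL; numbers are from one replicate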
Mtb hypoxia inh – reduces hypoxia-regulated biosensor signal in M. tuberculosis | 300,000 tested, 0.1% active | M. tuberculosis hypoxia-regulated fluorescent reporter, fluorescence | fluorescence inhibition, % (concentration not given with the values);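 active = 35 to 45% if threefold the growth effect, above 45% if 1.5-fold the growth effect; inactive = the rest, general growth blockers included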;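 note: wells of about 50 µL received 100 nL stock; 0% = vehicle wells and 100% = reference inhibitor wells; whole bacteria with a GFP reporter of the hypoxia response; strong numbers were not always called active; many hits fall short of the cut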
Sa ugtP lethal – compounds lethal to S. aureus RN4220 ugtP deletion mutant; growth inhibition, % (no concentration beside the values); 330,000 tested, 0.54% active; OD600 growth, 16 h; some inactives read as strong as hits; AID 1259309;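 active = z-score under -3 and OD600 up to 0.15 on both plates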;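 note: plate controls were untreated wells for no effect and antibiotic for full effect; wells of about 80 µL received 100 nL stock; the first replicate is given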
Sa RN4220 lethal – S. aureus RN4220 growth inhibition. OD600, 16 h. inhibition, % (concentration not given with the values). 330,000 tested, 0.33% active;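 active = z-score of -3 or lower and OD600 up to 0.18 on both plates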;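 note: plate controls were untreated cells for no effect and reference antibiotic for full effect; stock transfer was 100 nL into about 80 µL; one replicate is shown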
Autofluor counter – counter-screen for toxin protease inhibitors: compound fluorescence; 360,000 tested, 3.1% active; fluorescence intensity (no concentration beside the values); compound autofluorescence counterscreen, microsphere flow cytometry; active compounds read high;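 active = at least 3 SD above the mean of all compounds, about 16000 in these data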;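 note: 100 nL of 1 mM stock went into each well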
PrP 5UTR inh – inhibition of PrP 5' UTR reporter expression. cell-based PrP 5' UTR mRNA reporter, plate reader. inhibition, % (concentration not given with the values). 340,000 tested, 0.35% active;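 active = every replicate at 50% or more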;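 note: 0 = median of the neutral control wells; tested in H4 reporter cells; numbers are from one replicate; inactives centre near -14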
Mtb hypoxia inh growth – also measured in Mtb hypoxia inh; calls as there; growth inhibition, %; measured here: M. tuberculosis growth (absorbance);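 0% = vehicle and 100% = reference antibiotic; read after six days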
The depositor's hits bear a star; x = not tested or not shown.

SMILES | BJeLR viability | Mtb hypoxia inh | Mtb hypoxia inh growth | Sa ugtP lethal | Sa RN4220 lethal | Autofluor counter | PrP 5UTR inh
CCONC(=O)Nc1ccccc1 | 8 | 1 | 4 | 7 | 6.2 | 2333 | -14
Cc1ccccc1CNC(=O)C1CCC(=O)N(C2CCCCCC2)C1 (stereo not drawn) | -5 | 15 | 10 | 9 | 4.1 | 5513 | -13
O=C(Nc1cccc(Cl)c1)c1ccccc1 | x | 22 | 16 | 4 | 9.3 | 2916 | -50
COC(=O)c1ccccc1NC1CC(=O)N(c2c(C)cccc2C)C1=O (stereo not drawn) | -8 | -4 | 2 | -1 | -3.6 | 8522 | -16
O=C(/C=C/c1ccc(OCc2cccc(Cl)c2)cc1)N1CCOCC1 | -16 | 9 | 6 | 11 | 13 | 4105 | -20
CCn1ncc(C2=NOC(C(=O)Nc3cccnc3)C2)c1C (stereo not drawn) | 0 | 2 | 0 | 5 | 1.3 | 22133* | -14
COc1ccc(/C=C/C(=O)Nc2ccc(-n3nncc3-c3ccc(OC)c(OC)c3)cc2)cc1OC | 1 | -5 | 5 | -4 | -5.3 | 2525 | 2
CN1CCc2ccccc2Cc2[nH]c3ccccc3c2CC1 | x | -3 | 5 | 3 | 2.7 | 5838 | -29
O=C(NCc1cccc(C(F)(F)F)c1)c1ccc[nH]1 | -3 | x | x | 13 | 3.6 | 3705 | -14
C=CCNC(=O)Nc1cc(Cl)ccc1OC | -1 | -2 | 8 | -6 | -0.8 | 2615 | -28
CN(C)c1ccc(C=NNC(=O)CSc2ccccn2)cc1 | x | 1 | 0 | -6 | -8.0 | x | x
COc1cccc(N2CCN(C(=O)c3[nH]c(C)c(C(C)=O)c3C)CC2)c1 | 27 | 15 | 7 | 7 | 1.2 | 4014 | -14
COc1ccc(C(=O)NC(=S)Nc2nc(C)cc(C)n2)cc1Br | -5 | 3 | -2 | 4 | 2.2 | 5927 | x
COc1cccc(C(=O)Oc2ccc3c(C)cc(=O)oc3c2C(C)=O)c1 | -2 | 14 | 2 | 2 | 4.7 | 9101 | 2
CCOc1ccc(NC(=O)CCc2ccc(C)o2)cc1 | 1 | 1 | -1 | 3 | 1.3 | 4423 | -6
O=c1c2ccccc2nc(N2CCCC2)n1-c1ccccc1 | 2 | 7 | 8 | 11 | 8.8 | 5872 | -22
CC(=O)Cc1nsc(Nc2ccc3c(c2)OCCO3)n1 | -1 | 1 | 2 | 3 | 22 | 2397 | -68
Fc1ccccc1-c1nc(-c2ccccc2)no1 | -4 | -3 | 14 | 2 | 5.9 | 2757 | -58
Cc1cc2c(ncn2C)c(NS(=O)(=O)c2cc(Cl)ccc2Cl)c1C | -6 | 2 | 3 | 4 | 17 | 9797 | -16
CCS(=O)(=O)N1CCC(C(=O)NCc2ccccc2OC)CC1 | 4 | 14 | 5 | 2 | 2.6 | 9116 | -3
Nc1nc(-c2cccnc2)nn1C(=O)Cc1ccccc1 | -7 | 7 | 4 | 4 | 0.1 | 22678* | 3
COc1cc(C=NNc2nnc3c(n2)[nH]c2ccccc23)ccc1O | x | 8 | -4 | -6 | 5.8 | x | x
CCOC(=O)C1CCN(CC(=O)Nc2ccc(OC)c(S(=O)(=O)N3CCCCC3)c2)CC1 | x | -7 | 3 | 0 | 1.2 | 4038 | -2
COc1cc(NC(=O)c2cccs2)c(C(=O)OCC(=O)NCc2ccco2)cc1OC | -4 | 6 | 7 | -27 | -1.7 | x | -17
Cc1ccc(CNC(=O)CSc2nc3ccsc3c(=O)n2NC(=O)c2ccccc2)cc1 | 3 | -2 | 3 | -5 | -3.5 | 23505* | -45
COc1cccc(C(=O)Nc2nc3c(s2)CN(C)CC3)c1 | 21 | x | x | 4 | 3.3 | 6558 | -62
O=c1oc(-c2ccc(Br)cc2)nc2ccccc12 | -8 | 11 | 9 | 9 | 12 | 3856 | -28
CCC1=NN2C(=N)/C(=C\c3ccc(OCCOc4ccc(NC(C)=O)cc4)c(OC)c3)C(=O)N=C2S1 | -4 | 13 | 6 | 11 | 5.3 | 3183 | -23
O=C(N/N=C/c1ccccn1)c1cc(-c2ccccc2Cl)n[nH]1 | -7 | x | x | x | x | 4279 | -32
Cc1cc(C(=O)COC(=O)c2ccc(F)cc2F)c(C)n1C1CC1 | x | 6 | 10 | 6 | 0.5 | 5166 | -74
Cc1nn(CCCC(=O)NCc2ccc(Cl)cc2)c(C)c1[N+](=O)[O-] | 3 | 7 | 10 | 5 | -0.4 | 6850 | -25
Cc1c(NC(=O)C(C)OC(=O)/C=C/c2ccc(OC(F)F)cc2)c(=O)n(-c2ccccc2)n1C (stereo not drawn) | -12 | 1 | -7 | 10 | -1.8 | 5933 | -10
CC(=O)c1sc(NCc2ccccc2)nc1C | 1 | -10 | 6 | 6 | 6.3 | 5993 | -23
O=C(NCCN1CCOCC1)c1ccc(CS(=O)(=O)c2ccc(Cl)cc2)o1 | 3 | 1 | -3 | 4 | -11 | 2478 | -11
CC(C)(C)C1(C)OC(=O)C(=Cc2ccc(OCC(=O)Nc3ccccc3)cc2)C(=O)O1 (stereo not drawn) | 11 | 8 | 3 | 1 | 4.1 | 2534 | -23
Cn1c(SCC(=O)Nc2ccc3c(c2)n(C)c(=O)n3C)nnc1-c1ccncc1 | -8 | -3 | 4 | 5 | 1.5 | 5487 | -1
CCN(CC)S(=O)(=O)c1ccc(N2CCN(CCO)CC2)nc1 | -11 | 2 | 3 | 2 | 4.1 | 2571 | -3
COc1cc(C(=O)c2ccc3c(c2)OCO3)cc(OC)c1OC | x | 17 | 16 | 1 | 5.4 | 3434 | 1
COc1ccc(CC2C(=O)N(C)C(=O)N(C)C2=O)c(OC)c1 | -9 | x | x | x | x | 4168 | -20
CCOc1ccc(NC(=O)C2CCCCN2S(=O)(=O)c2ccccc2)cc1 (stereo not drawn) | 3 | 6 | 8 | 3 | 5.3 | 10841 | -33
CC(C)c1ccc(N(C)C(=O)Cc2c(C(=O)O)n(C)c3ccccc23)cc1 | -5 | 14 | 4 | 4 | 10 | 3789 | 4
C=CCOc1ccc(C=NNC(=O)c2c(C)nc3ccc(Cl)cn23)cc1 | x | 8 | 2 | 2 | 2.8 | x | x
COCCn1cnnc1SCC(=O)Nc1ccc(Br)cc1F | x | 12 | 7 | 9 | 3.7 | 3248 | -16
CCCCNc1ccc(C(=O)Nc2cccc(C)n2)cc1[N+](=O)[O-] | -3 | 7 | 3 | 5 | 5.4 | 7972 | x
c1ccc(-n2ncc3c(N4CCN(CCOc5cccc6ccccc56)CC4)ncnc32)cc1 | -7 | 6 | 14 | 13 | 1.7 | 4496 | -10
O=C(OCc1nnc(-c2ccccc2)o1)C1CC(=O)N(Cc2ccco2)C1 (stereo not drawn) | 10 | 15 | 0 | 1 | 7.5 | 3525 | 27
CSc1ccc(CNCC(O)c2ccccc2)cc1 (stereo not drawn) | -3 | 14 | 6 | 6 | 3.4 | 4875 | -16
c1ccc(-c2cc(N3CCCCC3)ncn2)cc1 | 9 | x | x | -11 | 7.6 | 4950 | -91

Random excerpt: four entries already listed, in no set order.
SMILES | BJeLR viability | Mtb hypoxia inh | Mtb hypoxia inh growth | Sa ugtP lethal | Sa RN4220 lethal | Autofluor counter | PrP 5UTR inh
CC(C)c1ccc(N(C)C(=O)Cc2c(C(=O)O)n(C)c3ccccc23)cc1 | -5 | 14 | 4 | 4 | 10 | 3789 | 4
CSc1ccc(CNCC(O)c2ccccc2)cc1 (stereo not drawn) | -3 | 14 | 6 | 6 | 3.4 | 4875 | -16
COc1ccc(CC2C(=O)N(C)C(=O)N(C)C2=O)c(OC)c1 | -9 | x | x | x | x | 4168 | -20
C=CCOc1ccc(C=NNC(=O)c2c(C)nc3ccc(Cl)cn23)cc1 | x | 8 | 2 | 2 | 2.8 | x | x

Carrying on:
SMILES | BJeLR viability | Mtb hypoxia inh | Mtb hypoxia inh growth | Sa ugtP lethal | Sa RN4220 lethal | Autofluor counter | PrP 5UTR inh
CCOc1ccc(CNS(=O)(=O)c2cc(-c3cc(C)no3)ccc2OC)cc1OC | 11 | 17 | 0 | 5 | 5.4 | 5432 | -14
Cc1ccc(N2CC(C(=O)Nc3c4c(nn3C(C)(C)C)CS(=O)(=O)C4)CC2=O)cc1 (stereo not drawn) | 6 | 10 | 0 | 16 | 5.4 | 4408 | 5
COc1ccccc1C(=O)NCCC(=O)N(C)CC(=O)Nc1ccccc1Br | 2 | 3 | 8 | 1 | 0.0 | 5690 | -7
COc1ccc2sc(-c3ccc(S(C)(=O)=O)cc3)c(C#Cc3cncn3C)c2c1 | x | 4 | 2 | -24 | 1.0 | 2993 | -11
O=C(O)c1cc(-c2ccco2)nc2cc3ccccc3cc12 | 5 | 16 | 6 | -4 | 0.6 | 3001 | -12
Cc1ccc(CSCCNS(=O)(=O)c2ccccc2)cc1 | 0 | 16 | 6 | -6 | 0.3 | 2018 | -7
CC(C)(C)OC(=O)NCCc1nnc(SCc2ccc(Cl)cc2)o1 | -1 | 7 | 7 | 1 | 5.3 | 9784 | -17
O=C(NCCCN1CCOCC1)c1ccc2c(c1)N(Cc1cccc(Cl)c1)C(=O)c1ccccc1S2=O (stereo not drawn) | 2 | 8 | 3 | 5 | -2.9 | 5409 | -6
CS(=O)(=O)N1CCN(c2ccc([N+](=O)[O-])c(NCc3ccccc3)c2)CC1 | -4 | -3 | -6 | -7 | -10 | 3281 | -16
Cc1cc2nc(CS)[nH]c2cc1C | 1 | -2 | -11 | -2 | 0.1 | 5702 | -14
Cc1cc(C)n2nc3nc4c(cc3c2n1)CCCC4 | 19 | x | x | -3 | 1.6 | 19863* | -19
O=C(NN=Cc1ccccc1F)NC1CCCCC1 | x | 9 | 13 | 7 | 2.1 | x | x

Single records, from the list above. Screens in order: BJeLR viability, Mtb hypoxia inh, Mtb hypoxia inh growth, Sa ugtP lethal, Sa RN4220 lethal, Autofluor counter, PrP 5UTR inh
Shown for CS(=O)(=O)N1CCN(c2ccc([N+](=O)[O-])c(NCc3ccccc3)c2)CC1 = -4, -3, -6, -7, -10, 3281, -16
Shown for O=C(NCCCN1CCOCC1)c1ccc2c(c1)N(Cc1cccc(Cl)c1)C(=O)c1ccccc1S2=O (stereo not drawn) = 2, 8, 3, 5, -2.9, 5409, -6

Following part
SMILES | BJeLR viability | Mtb hypoxia inh | Mtb hypoxia inh growth | Sa ugtP lethal | Sa RN4220 lethal | Autofluor counter | PrP 5UTR inh
Cc1ccc(NC(=O)CN(C)S(=O)(=O)c2cccc3nsnc23)cc1Cl | 12 | 11 | -4 | 3 | 2.1 | 8962 | -7
CN1CCN(c2cc3c(c4c2[nH]c2ccccc24)C(=O)CC(C)(C)C3)CC1 | 2 | 8 | 2 | 24 | -10 | 4450 | -2
CCCc1cc(=O)oc2c(C)c(OC3CCCCC3=O)ccc12 (stereo not drawn) | 10 | -7 | 5 | 0 | 3.6 | 3891 | -3
Cc1cccc(C)c1C(=NCCCN(C)C)c1ccccc1 | -7 | 5 | 5 | 4 | 4.4 | 2120 | -26
CCN(CC)C(=O)c1[nH]cnc1C(=O)NCC(=O)OCc1ccccc1 | 7 | 2 | 4 | -6 | 6.2 | 3097 | -8
Cc1ccc2nc(-c3ccncc3)c(Nc3ccccc3)n2c1 | -10 | 2 | 8 | -4 | 2.5 | 8856 | -53
CN1C(C(=O)NCc2ccccc2)CC2Cn3c(nc4cc(Cl)c(Cl)cc43)C21 (stereo not drawn) | 8 | 10 | -3 | -1 | -0.7 | 3462 | -3
CC(C)OC(=O)c1c(N)n(CC2CCCO2)c2nc3ccccc3nc12 (stereo not drawn) | -7 | x | x | 10 | -6.9 | 4522 | -17
NC(=O)Nn1c(CCC(=O)O)ccc1-c1ccc(F)cc1 | -6 | 11 | 13 | 2 | 0.8 | 7512 | -20
CCSc1nc2ccc(OC)cc2cc1C#N | 3 | x | x | 6 | 2.1 | 3620 | 44
CCOc1cc(C=NNC(=O)c2cccs2)ccc1OC(=O)N1CCOCC1 | x | 9 | 2 | 0 | 4.0 | x | x
O=C1OCCC1Sc1nnc(-c2ccccc2Br)n1Cc1ccccc1 (stereo not drawn) | -6 | 7 | 6 | 2 | 6.3 | 2150 | -21
CC(=O)/C(N=Nc1cc(C)ccc1O)=C(\C)O | 6 | 5 | -9 | 8 | 5.0 | 5043 | -20
CCCCc1ccc(NC(=O)C(=O)NCCN2CCN(Cc3ccc([N+](=O)[O-])cc3)CC2)cc1 | 8 | 8 | 7 | 2 | 1.5 | 4143 | -16
COC(=O)[C@@]12CCCN1C(c1ccc(-c3ccc(F)cc3)c(OC)c1)C1C(=O)N(C)C(=O)C12 (stereo partly drawn) | x | -2 | 11 | -6 | 1.2 | x | x
O=C(Nc1ccon1)c1ccccc1F | -2 | 12 | 4 | 0 | 5.8 | 23297* | -15
O=S(=O)(NC1CCCC1)c1cccc(-c2nnc(-c3ccccc3)o2)c1 | -6 | 13 | 7 | -3 | 12 | 11234 | -10
